# Bioassay records as filed in PubChem BioAssay.
# LASV entry inh – Lassa virus entry inhibition; AID 540256; hit rate 1.2% among 300,000; Lassa virus pseudotype entry inhibition, cell reporter; control for the full effect not named in the record; Potency, µM (highest dose often 37.9 µM), without a hit: at the highest dose activity change, negative = inhibition, usual class: inhibitors; active means well fitted inhibition curve with a large enough effect; inconclusive means small, poorly fitted or top-dose-only effect, or effect the other way; inactive means flat fitted curve, though single readings scatter; tested in HEK293 cells; further: on the % scale 0 is the no-effect control and ±100 the full control effect; nearly all actives have a fitted effect of over 50% in size; luciferase read-out
# NS1 function inh – blocks influenza NS1 protein function. AID 2326. S. cerevisiae slowed by influenza A NS1, growth recovery by OD600. hit rate 0.4% among 270,000. Potency, µM (top dose mostly 46.1 µM), for the others: top-dose activity, positive = more growth; active means well fitted rising curve with a large enough effect; inconclusive means small, poorly fitted or top-dose-only effect; inactive means no such curve, though single readings can be large or run the other way; further: nearly all actives have a fitted effect of over 50% in size
#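 Compounds were scored for reversing the slow growth caused by influenza A NS1 in S. cerevisiae, measured by optical density at 600 nm. Assay medium contained 2% galactose at pH 6.0; NS1-free yeast of the same strain were the positive control.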
# MARV entry inh – inhibitors of Marburg virus binding or cell entry; AID 540276; Potency, µM (highest dose often 37.8 µM), for inactives: at the top dose activity change, negative = inhibition, actives largely listed as inhibitors; hit rate 1.8% among 300,000; Marburg virus pseudotyped entry inhibition, cell reporter; control for the full effect not named in the record; about a third of the inactives were read at about 46 µM; active = well fitted inhibition curve with a large enough effect; inconclusive = small, poorly fitted or top-dose-only effect, or effect the other way; inactive = flat fitted curve, though single readings scatter; tested in HEK293 cells; about a fifth of its hits are not listed in these tables; further: on the % scale 0 is the no-effect control and ±100 the full control effect; luciferase read-out
# 2A StopGo – FMDV 2A StopGo reporter, luciferase signal; human cells with a luciferase reporter of 2A StopGo recoding; control for the full effect not named in the record; Potency, µM (top dose mostly 57.9 µM), for the others: at the highest dose signal change, negative = less light; hit rate 1.2% among 410,000; active = well fitted falling curve with a large enough effect; inconclusive = small, poorly fitted or top-dose-only effect; inactive = no such curve, though single readings can be large or run the other way; tested in HEK293T cells; further: on the % scale 0 is the no-effect control and ±100 the full control effect; nearly all actives have a fitted effect of over 45% in size; luciferase light after 4 h
# SARS PLpro yeast – SARS-CoV PLP inhibition in yeast | Potency, µM (top dose mostly 32.9 µM), for the others: at the highest dose activity, positive = growth rescue | hit rate 0.19% among 330,000 | S. cerevisiae expressing SARS-CoV PLpro, growth rescue; control for the full effect not named in the record; active means well fitted rising curve with a large enough effect; inconclusive means small, poorly fitted or top-dose-only effect; inactive means no such curve, though single readings can be large or run the other way; further: 0% is about no effect; nearly all actives have a fitted effect of over 55% in size; growth read by luminescence after 48 h
# Cruzain noTriton – cruzain (T. cruzi) inhibition without detergent. P25779. purified cruzain, Z-FR-AMC fluorescence, no detergent. Potency, µM, inactives show max response, negative = inhibition, actives largely listed as inhibitors. hit rate 2.3% among 200,000. AID 1476;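 further: plate controls were enzyme without inhibitor for no effect and buffer without enzyme for full effect; nearly all actives have a fitted effect of over 40% in size; top concentration of the series not given in the record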
# Target sequence (P25779 123-467 limits assumed): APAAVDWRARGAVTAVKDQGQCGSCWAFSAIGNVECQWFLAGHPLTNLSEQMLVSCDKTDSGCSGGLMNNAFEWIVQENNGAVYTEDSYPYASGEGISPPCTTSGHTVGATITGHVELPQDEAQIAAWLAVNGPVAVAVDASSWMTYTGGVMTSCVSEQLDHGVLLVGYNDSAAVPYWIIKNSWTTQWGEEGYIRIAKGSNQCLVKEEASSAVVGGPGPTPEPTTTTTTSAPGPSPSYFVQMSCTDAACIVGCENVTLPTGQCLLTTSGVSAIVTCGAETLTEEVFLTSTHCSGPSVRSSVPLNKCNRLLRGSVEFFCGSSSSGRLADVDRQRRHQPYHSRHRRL
#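 Detergent-free condition (0.00005% Triton X-100) in acetate buffer pH 5.5 with DTT. 1.5 nM enzyme and compound were pre-mixed 15 min, then 2 uM Z-FR-AMC substrate added; reaction progress from fluorescence change between first and third reads (60 s).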
# Cruzain Triton – inhibitors of Trypanosoma cruzi cruzain with detergent; P25779; purified cruzain, Z-FR-AMC fluorescence, 0.01% Triton; Potency, µM, for inactives: max response, negative = inhibition, most hits filed as inhibitors; hit rate 0.43% among 200,000;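 further: plate controls were neutral wells for no effect and buffer without enzyme for full effect; nearly all actives have a fitted effect of over 40% in size; top concentration of the series not given in the record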
#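 Enzyme 1.5 nM, Z-FR-AMC 2 uM, NaOAc 100 mM pH 5.5, DTT 5 mM, Triton X-100 0.01%; 15 min RT compound preincubation; kinetic ex360/em450, 60 s delta.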
# RE007 growth inh – less growth of the S. pombe RE007 Vpr strain | S. pombe RE007 Vpr strain, BacTiter-Glo ATP luminescence, 24 h; control for the full effect not named in the record | Potency, µM (doses to about 92.2 µM), inactives show at the highest dose activity change, negative = less growth | hit rate 0.21% among 360,000 | AID 651644; active = well fitted falling curve with a large enough effect; inconclusive = small, poorly fitted or top-dose-only effect; inactive = no such curve, though single readings can be large or run the other way;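 further: on the % scale 0 is the no-effect control and ±100 the full control effect; nearly all actives have a fitted effect of over 50% in size; the assay follows cell death caused by Vpr and the record does not say whether a fall means rescue or toxicity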
#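 Fission yeast strain RE007, carrying one chromosomally integrated HIV-1 vpr copy, was seeded at OD 0.01 in PMG+AL medium with 23 nL pinned compound. After 24 h at 30 °C and 99% humidity, viability was read by BacTiter-Glo luminescence.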
# * = called active by the depositor; ? = inconclusive; · = not tested or not shown; [ ] = dose if it differs, or a comment. Unless noted, the call rests on the fitted dose curve; in most records, active means well fitted curve in the direction sought with a large enough effect; inconclusive means small, poorly fitted or top-dose-only effect, or another doubt; inactive means no such curve, though single readings can be large; an effect the other way counts as inactive or inconclusive. Potency means the concentration at half of the fitted maximal effect. Rows are unselected; overall some 4.7% were active at least once.
SMILES	Cruzain Triton	NS1 function inh	2A StopGo	LASV entry inh	RE007 growth inh	Cruzain noTriton	MARV entry inh	SARS PLpro yeast
CCCCCNC(=O)C(C#N)c1nc2ccccc2nc1N1CCCC1 (configuration not stated)	-2.4%	-6%	-20%	5%	-6%	13µM*	4%	-2%
COc1cc(C(=O)N/C(=C\c2cn(C)c3ccccc23)C(=O)NCCCn2ccnc2)cc(OC)c1OC	·	-1%	-9%	·	6%	·	·	2%
CN1CCN(c2ccc(CNS(=O)(=O)c3ccc(F)cc3Cl)cc2)CC1	·	4%	-13%	·	-5%	·	·	-2%
Cc1cc(C(=O)N2CCN(C(=O)c3ccco3)CC2)ccc1[N+](=O)[O-]	·	3%	-22%	·	11%	·	·	-1%
Cc1nn(CC(=O)NCCc2ccc(Cl)cc2)c(C)c1[N+](=O)[O-]	0.3%	-2%	·	14%	-11%	-4%	0%	0%
NC1=NC[C@H](c2ccccc2)N1CCc1cccc(F)c1	·	10%	-24%	·	-11%	·	·	0%
Cc1ccc(N(CC(=O)NCCSc2ccccc2)S(=O)(=O)c2ccc(F)cc2)cc1	-18%	·	?	-13%[46.1 µM]	·	-23%	·	·
CC1(C)C(c2ccccn2)=[N+]([O-])C(C)(C)N1O	2.2%	0%	·	15%	-13%	-6%	14%	-5%
C=CCN1C(c2cccc(C(F)(F)F)c2)=CS/C1=C(/C#N)c1nnc(N2CCOCC2)n1-c1ccccc1	-15%	-13%	-27%	?	·	?	-44%	12%
CN(C)C(=O)c1cnc(-c2ccccc2)nc1-c1ccccc1	·	-4%	-13%	-2%	2%	·	?	1%
CCn1c2ccccc2c2cc(/C=N/NC(=O)c3ccccc3)ccc21	?	18%	-17%	?	-15%	32µM*	12µM*	-7%
COc1ccc(C(=O)N2CCN(CCc3ccccc3)CC2)cc1[N+](=O)[O-]	·	8%	-19%	-6%	-2%	·	-14%	3%
CCOc1ccc(-n2c(O)c(C=Nc3ccc(N4CCOCC4)cc3)c(=O)[nH]c2=O)cc1	-4.0%	?	-16%	-1%	-20%	25%	3%	1%
COc1cccc(/C=N/Nc2ccc(Cl)nn2)c1	·	-1%	34%[activator]	·	-3%	·	·	-2%
NC(CO)c1cn([C@@H](CCC(=O)O)C(=O)N2CCNCC2)nn1 (some centres not stated)	·	-2%	-9%	·	-2%	·	·	1%
COc1ccc(C(=O)NNC(=O)CNC(=O)C2CCCCC2)cc1	·	4%	-8%	·	-1%	·	·	0%
CCCNC(=O)c1cc(S(=O)(=O)N2CCCCC2)c[nH]1	·	11%	7%	·	1%	·	·	10%
CCCCn1c(N)c(N(CCOC)C(=O)CSc2nnc(C)n2-c2ccc(OC)cc2)c(=O)[nH]c1=O	·	·	-19%	-6%	10%	·	?	0%
COc1ccc(-n2c(C)nc3cc(C(=O)O)ccc32)cc1	4.3%	-8%	·	5%	-8%	3%	9%	-3%
CC(=O)c1ccc(NC(=O)Cn2c3ccccc3c3nc(=O)cc(C)n32)cc1	·	-3%	8%	·	-2%	·	·	0%
COc1cc(/C=C2/SC(=O)N(Cc3ccccc3Cl)C2=O)ccc1OCc1ccncc1	4.3%	28%	-21%	2%	-1%	-3%	-1%	-2%
Cc1nnc(NC(=O)CSc2nnc3c(n2)[nH]c2ccc(Br)cc23)s1	·	11%	4%	·	0%	·	-17%[46.1 µM]	2%
CCn1cc(C(=O)NCc2ccco2)c(=O)c2cc(S(=O)(=O)N3CCc4ccccc4C3)ccc21	-5.8%	21%	-9%	-21%	-7%	?	-10%	-5%
O=S(=O)(NCc1ccco1)c1ccccc1Br	·	3%	13%	·	-3%	·	·	-1%
Cc1ccc(-n2ncc3c(NCCCOC(C)C)ncnc32)c(C)c1	-5.8%	-11%	0%	?	18%	7%	-4%	1%
CCOc1ccc(NC(=O)CN(C)C(=O)C2CCCO2)cc1OCC (configuration not stated)	·	·	-23%	-16%	5%	·	29%	-3%
CC(=O)Nc1ccc2nc(C3CCCCC3)[nH]c2c1	1.6%	12%	14%	3%	-14%	-4%	-8%	-3%
COc1ccc(-c2n[nH]c(=S)n2/N=C/C=C\c2ccccc2OC)cc1	-4.5%	18%	10%	?	6%	-27%	-21%	-15%
O=C(CCSc1ccc(Cl)cc1)NN=C1CCCCCC1	·	·	-14%	1%	0%	·	1%[46.1 µM]	0%
Cc1cccc2sc(NNC(=O)c3ccc(S(=O)(=O)N4CCCC(C)C4)cc3)nc12 (configuration not stated)	-0.4%	-12%	10µM*	?	15%	-23%	?	8.9µM*
COc1ccc(C2N=C(c3ccccc3)NO2)cc1OC (configuration not stated)	·	-8%	76%[activator]	?	2%	·	0%[46.1 µM]	-16%
Cc1ccccc1NC(=O)Cc1nnc(SCC(=O)NC2=NCCS2)n1C	·	2%	-12%	-3%	-3%	·	-6%	0%
COc1ccc(CCNC(=O)c2c(O)c3ccccc3n(C)c2=O)cc1	·	-5%	-2%	0%[46.1 µM]	6%	·	9%[46.1 µM]	1%
O=C(CCN1CCCCC1c1cccnc1)NCc1ccccc1 (configuration not stated)	-2.5%	-5%	2%	-8%	5%	-4%	0%	5%
C#CCNC(=O)C1=C[C@H](c2csc3ccccc23)[C@@H](CCCO)[C@H](OCC)O1	·	1%	-22%	·	1%	·	·	-1%
COc1ccc(C(=O)N2CCC(C(=O)Nc3ccc(OC)cc3OC)CC2)cc1	-3.8%	·	-2%	-20%[46.1 µM]	·	-8%	2%[46.1 µM]	·
CCN(CC)C(=O)COc1ccc(/C(C)=N/NC(=O)c2ccccc2Br)cc1	·	·	-4%	17%[46.1 µM]	1%	·	3%[46.1 µM]	4%
Cc1n[nH]c(C)c1C(=O)CC1(O)C(=O)N(CCc2ccccc2)c2ccc(Br)cc21 (configuration not stated)	-5.7%	13%	13%	-25%	6%	?	?	-15%
CC(=O)c1ccc(CC2SC(N)=NC2=O)cc1 (configuration not stated)	·	14%	-2%	·	5%	·	·	8%
Cn1cc(-c2ccccc2C(=O)O)c(=O)c2cc(Cl)ccc21	·	1%	-19%	0%[46.1 µM]	49%	·	-2%[46.1 µM]	-2%
O=C(NS(=O)(=O)Nc1ccccn1)c1c[nH]c2ccccc12	·	2%	-9%	·	17%	·	·	0%
Cc1c(C(=O)O)oc2c1/C(=N\O)CCC2	1.3%	0%	-19%	13%	10%	0%	?	18%
COc1ccc(CNC(=O)Cn2ncc3c(=O)oc4ccccc4c32)c(OC)c1	0.1%	·	0%	6%[46.1 µM]	·	-7%	10%[46.1 µM]	·
COc1cccc(NC(=O)COC(=O)CCSc2ccccc2)c1	·	·	30%[activator]	17%	-23%	·	1%	-5%
Cc1ccc(CN2CCN(Cc3cnc(N4CCOCC4)s3)CC2CCO)cc1 (configuration not stated)	·	4%	-21%	·	-5%	·	·	1%
CCOC(=O)CC1COCCN1C(=O)c1cc(COc2ccc(F)c(F)c2)on1 (configuration not stated)	·	-7%	21%	·	11%	·	·	3%
CC1=C(C(=O)Nc2ccccc2)C(c2ccncc2)C(C#N)=C(SCC(=O)Nc2ccccc2)N1 (configuration not stated)	-2.7%	1%	-26%	-8%	4%	3%	?	12%
COc1ccc(S(=O)(=O)N2CCCC(C(=O)N3CCN(C)CC3)C2)cc1C (configuration not stated)	5.6%	-8%	-9%	-3%	-1%	-13%	-10%	1%
O=C(CCCn1c(=S)[nH]c2ccsc2c1=O)Nc1ccc2c(c1)OCO2	·	10%	12%	·	2%	·	12%[46.1 µM]	-3%
Cc1sc(Nc2ccc([N+](=O)[O-])cc2)nc1-c1c(C)n(C)n(-c2ccccc2)c1=O	-9.1%	6%	0%	?	-10%	10%	30%	18%
COc1ccc(OC)c(C(C)NC=O)c1 (configuration not stated)	2.7%	-10%	·	-16%	-1%	-5%	-22%	4%
O=C(Cc1ccc(Cl)cc1Cl)Nc1cccc(S(=O)(=O)Nc2ccccc2F)c1	-7.0%	-1%	-8%	7.3µM*	-25%	-12%	?	-1%
Cc1cccc(N(C)C(=O)c2cnn(-c3ccccc3)c2C)c1	·	-2%	-15%	·	-4%	·	·	-3%
Cc1cccc(NC(NC(=O)c2ccccc2[N+](=O)[O-])C(Cl)(Cl)Cl)c1 (configuration not stated)	-5.5%	-18%	-25%	8%	-8%	-13%	12%	-4%
CC(=O)Nc1cccc(/C(C)=N/NC(=O)c2c(-c3ccccc3Cl)noc2C)c1	-1.3%	0%	25µM*	?	5%	15%	?	2%
Cc1cnn(C(=O)c2ccccc2Br)c1	8.6%	6%	23%	1%	5%	3%	5%	-1%
Oc1ccccc1-c1nc(-c2cccs2)c(-c2cccs2)[nH]1	-3.6%	·	?	-25%[46.1 µM]	·	-26%	-26%[46.1 µM]	·
COc1ccc(NC(=O)CCS(=O)(=O)c2ccc3c(c2)oc(=O)n3C)cc1	·	7%	-7%	·	17%	·	·	-6%
CC(C)(O)C#Cc1ccc(CN2CCC(CO)(CCc3ccccc3)CC2)cc1	·	15%	?	·	2%	·	·	7%
O=C(Nc1ccccc1C(F)(F)F)c1cc(-c2ccccc2O)on1	1.3%	0%	73%[activator]	4%	-14%	-16%	27%	0%

# (continued)
SMILES	Cruzain Triton	NS1 function inh	2A StopGo	LASV entry inh	RE007 growth inh	Cruzain noTriton	MARV entry inh	SARS PLpro yeast
O=C(Nc1ccc(N2CCN(C(=O)c3ccccc3F)CC2)cc1)c1ncn[nH]1	·	·	12%	-12%	5%	·	5%[46.1 µM]	4%
COC(=O)c1c(O)cc(=O)n2c1CCCCC2	·	·	6%	4%	8%	·	23%	3%
Cc1ccccc1C(=O)OCCCN=C1NS(=O)(=O)c2ccccc21	2.0%	-5%	5%	-15%	34%	16%	3%[46.1 µM]	-8%
Cc1nnc(SCC(=O)Nc2ccc(Oc3ccccc3)cc2)n1N	1.3%	-5%	24%	-16%	4%	13%	17%	5%
O=C(NC(=S)Nc1ccc(N2CCOCC2)cc1)c1cccc(Cl)c1	-9.4%	5%	-12%	-6%	2%	2%	?	-15%
